Assay outcomes deposited in PubChem BioAssay by Broad Institute.
Yeast UUG start: alters start codon recognition fidelity in yeast. S. cerevisiae UUG-firefly luciferase reporter, luminescence/redox ratio. activity score, % at 18.7 µM. hit rate 0.13% among 350,000. AID 602363;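 active means replicate mean at a twofold rise or more, about +100% in these data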;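 further: firefly luciferase made from a UUG start codon reports start codon fidelity; reporter light over untreated wells divided by growth signal over untreated wells; some hits fall short of that in this replicate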
HIV Env fusion: inhibitors of HIV Env-mediated cell fusion. hit rate 1.1% among 360,000. inhibition, % at 12.3 µM. HeLa-JRFL Env/CEM21 cell fusion, luciferase;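 active means mean replicate inhibition score of at least 50 and every replicate individually at or above 50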;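 further: 0% = plate neutral controls and 100% = maraviroc near 300 nM; one replicate is shown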
Rce1 inhib: inhibitors of yeast Ras-converting enzyme. Q03530. yeast membranes, quenched prenylated peptide cleavage fluorescence. calls only. hit rate 0.27% among 290,000. AID 2563;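 active means fall in fluorescence gain of 50% or more versus controls, with final raw signal at or below 3038400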;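 further: plate controls were neutral control wells for no effect and wells lacking membranes for full effect; tested at 10 µM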
Target sequence (Q03530 whole entry, looked up): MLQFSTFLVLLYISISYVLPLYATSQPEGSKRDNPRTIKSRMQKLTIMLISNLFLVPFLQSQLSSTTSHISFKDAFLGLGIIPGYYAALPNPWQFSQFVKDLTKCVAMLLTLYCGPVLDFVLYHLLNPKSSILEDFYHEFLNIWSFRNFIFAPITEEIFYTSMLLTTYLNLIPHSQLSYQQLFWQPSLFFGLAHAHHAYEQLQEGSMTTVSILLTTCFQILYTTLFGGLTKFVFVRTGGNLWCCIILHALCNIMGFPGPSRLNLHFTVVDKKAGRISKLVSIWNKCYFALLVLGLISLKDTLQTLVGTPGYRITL
CSC inhib: cancer stem cell inhibition. hit rate 1.1% among 300,000. AID 2717. cancer stem cell-like cells viability, luminescence. inhibition, % at 7.5 µM;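 active means mean at 75% or more and at least half the replicates too; tested in HMLE shEcad cells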;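 further: 0% = median of negative and 100% = median of positive control wells; the first replicate is given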
Starred values were filed as active, the others as inactive; i = inactive; . = not tested or not shown; [ ] = another dose, or the depositor's remark.

Letters – A = Yeast UUG start; B = HIV Env fusion; C = Rce1 inhib; D = CSC inhib
smiles: C[C@H]1CN([C@@H](C)CO)C(=O)c2cc(NC(=O)c3ccncc3)ccc2O[C@H]1CN(C)S(=O)(=O)c1cccs1
  A: -6	B: .	C: .	D: .
smiles: C[C@@H]1CN([C@@H](C)CO)C(=O)c2cc(NC(=O)Nc3ccccc3)ccc2O[C@H]1CN(C)C(=O)NC1CCCCC1
  A: 2	B: .	C: .	D: .
smiles: COCC(=O)Nc1ccc2c(c1)OC[C@@H](C)N(Cc1cc(F)ccc1F)C[C@H](C)[C@@H](OC)CN(C)C2=O
  A: -1	B: .	C: .	D: .
smiles: CO[C@H]1CN(C)C(=O)c2cc(NC(=O)C3CC3)ccc2OC[C@@H](C)N(C(=O)CN(C)C)C[C@@H]1C
  A: -15	B: .	C: .	D: .
smiles: O=C(c1cccc(F)c1)N1CCCCN2[C@H](CO)[C@@H](c3ccc(C#CC4(O)CCCC4)cc3)[C@@H]2C1
  A: 14	B: .	C: .	D: .
smiles: C[C@@H]1CN([C@H](C)CO)C(=O)c2cccc(NS(=O)(=O)c3ccc(F)cc3)c2O[C@@H]1CN(C)Cc1ccc(C(=O)O)cc1
  A: 2	B: .	C: .	D: .
smiles: C[C@H]1CN([C@@H](C)CO)C(=O)c2cc(NC(=O)Cc3ccccc3)ccc2O[C@@H]1CN(C)S(=O)(=O)c1cccs1
  A: 11	B: .	C: .	D: .
smiles: CO[C@@H]1CN(C)C(=O)c2cc(NS(=O)(=O)c3ccccc3)ccc2OC[C@H](C)N(Cc2nccs2)C[C@H]1C
  A: -2	B: .	C: .	D: .
smiles: CN1C(=O)c2cc(NC(=O)Nc3ccccc3F)ccc2OC[C@@H]2O[C@H](CC(=O)NCc3ccc(-c4ccccc4)cc3)CC[C@H]21
  A: -21	B: .	C: .	D: .
smiles: CN1C(=O)c2cc(NC(=O)NC3CCCC3)ccc2OC[C@@H]2O[C@@H](CC(=O)O)CC[C@@H]21
  A: 1	B: .	C: .	D: .
smiles: CO[C@H]1CN(C)C(=O)c2ccc(NC(C)=O)cc2OC[C@H](C)N(C(=O)CN2CCOCC2)C[C@@H]1C
  A: -3	B: .	C: .	D: .
smiles: OC[C@@H]1[C@H](c2ccc(/C=C/c3ccccc3)cc2)[C@@H]2CN(Cc3ccncc3)CCCCN12
  A: -9	B: .	C: .	D: .
smiles: O=C(NC[C@H]1[C@@H](c2ccccc2)[C@@H](CO)N1Cc1ccccn1)C1CC1
  A: -15	B: .	C: .	D: .
smiles: CO[C@@H]1CN(C)C(=O)c2cc(NC(=O)NC(C)C)ccc2OC[C@H](C)N(C)C[C@@H]1C
  A: -9	B: .	C: .	D: .
smiles: COCC(=O)Nc1ccc2c(c1)C(=O)N(C)C[C@@H](OC)[C@@H](C)CN(Cc1ccccc1F)[C@H](C)CO2
  A: -2	B: .	C: .	D: .
smiles: CNC[C@H]1Oc2ccc(NS(=O)(=O)c3ccc(OC)cc3)cc2C(=O)N([C@@H](C)CO)C[C@@H]1C
  A: -13	B: .	C: .	D: .
smiles: CN1c2ccc(-c3ccccc3)cc2[C@H]2[C@H](CCN2S(=O)(=O)c2ccccc2F)[C@H]1CO
  A: 5	B: .	C: .	D: .
smiles: C[C@@H]1CN([C@H](C)CO)C(=O)Cc2cc(NS(=O)(=O)c3cccs3)ccc2O[C@@H]1CN(C)C
  A: 14	B: .	C: .	D: .
smiles: OC[C@@H]1[C@@H](c2ccc(-c3cccnc3)cc2)[C@H]2CN(CC3CCOCC3)CCCCN12
  A: -25	B: .	C: .	D: .
smiles: C[C@@H]1CN([C@@H](C)CO)C(=O)c2cc(NS(=O)(=O)c3ccc(F)cc3)ccc2O[C@H]1CN(C)Cc1ccc(-c2ccccc2)cc1
  A: -11	B: .	C: .	D: .
smiles: CCCNC(=O)Nc1ccc2c(c1)C(=O)N(C)[C@@H]1CC[C@H](CC(=O)NCc3ccccc3)O[C@H]1CO2
  A: -4	B: .	C: .	D: .
smiles: COc1ccc(NC(=O)N2C[C@@H](O)COC[C@@H]3O[C@H](CC(=O)NC4Cc5ccccc5C4)CC[C@H]32)cc1
  A: 8	B: .	C: .	D: .
smiles: C[C@@H]1CN([C@@H](C)CO)C(=O)c2cccc(NC(=O)NC3CCCCC3)c2O[C@H]1CN(C)S(=O)(=O)c1ccc(F)cc1
  A: 11	B: .	C: .	D: .
smiles: CN(C)CCCNC(=O)C[C@@H]1CC[C@H]2[C@@H](COC[C@@H](O)CN2Cc2cccc(C(F)(F)F)c2)O1
  A: -1	B: .	C: .	D: .
smiles: O=C(C[C@H]1CC[C@H]2[C@@H](COC[C@H](O)CN2CC2CCCCC2)O1)NCc1ccc(Cl)cc1
  A: 5	B: .	C: .	D: .

The list goes on (five carried over from the part before).
Letters – A = Yeast UUG start; B = HIV Env fusion; C = Rce1 inhib; D = CSC inhib
smiles: CCCNC(=O)Nc1ccc2c(c1)C(=O)N(C)[C@@H]1CC[C@H](CC(=O)NCc3ccccc3)O[C@H]1CO2
  A: -4	B: .	C: .	D: .
smiles: COc1ccc(NC(=O)N2C[C@@H](O)COC[C@@H]3O[C@H](CC(=O)NC4Cc5ccccc5C4)CC[C@H]32)cc1
  A: 8	B: .	C: .	D: .
smiles: C[C@@H]1CN([C@@H](C)CO)C(=O)c2cccc(NC(=O)NC3CCCCC3)c2O[C@H]1CN(C)S(=O)(=O)c1ccc(F)cc1
  A: 11	B: .	C: .	D: .
smiles: CN(C)CCCNC(=O)C[C@@H]1CC[C@H]2[C@@H](COC[C@@H](O)CN2Cc2cccc(C(F)(F)F)c2)O1
  A: -1	B: .	C: .	D: .
smiles: O=C(C[C@H]1CC[C@H]2[C@@H](COC[C@H](O)CN2CC2CCCCC2)O1)NCc1ccc(Cl)cc1
  A: 5	B: .	C: .	D: .
smiles: O=C(C[C@H]1C[C@H]2c3cc(NC(=O)NC4CCCC4)ccc3O[C@H]2[C@H](CO)O1)NCc1ccc(Cl)cc1
  A: -2	B: .	C: .	D: .
smiles: COc1ccccc1CN1[C@@H](CO)[C@@H]2c3ccccc3N(C(=O)C3CCCC3)C[C@@H]21
  A: 1	B: .	C: .	D: .
smiles: Cc1ccc(S(=O)(=O)Nc2ccc3c(c2)C(=O)N([C@@H](C)CO)C[C@H](C)[C@@H](CN(C)CC2CC2)O3)cc1
  A: -6	B: .	C: .	D: .
smiles: O=C(C[C@H]1C[C@@H]2c3cc(NC(=O)NC4CCCC4)ccc3O[C@@H]2[C@H](CO)O1)NCc1ccc(-c2ccccc2)cc1
  A: -18	B: .	C: .	D: .
smiles: CCCNC(=O)NC[C@@H]1[C@H](c2ccc(C3=CCCCC3)cc2)[C@@H](CO)N1C(C)=O
  A: -1	B: .	C: .	D: .
smiles: Cc1ccc(S(=O)(=O)N2CC[C@@H]3[C@@H](CO)Nc4ccc(Br)cc4[C@@H]32)cc1
  A: 5	B: .	C: .	D: .
smiles: C/C=C/c1ccc([C@@H]2[C@@H](CO)N(C(=O)C3CCC3)[C@H]2CN(CC)C(=O)CC)cc1
  A: 5	B: .	C: .	D: .
smiles: CCNC(=O)C[C@H]1CC[C@@H]2[C@H](COC[C@H](O)CN2Cc2ccc(Cl)c(Cl)c2)O1
  A: 17	B: .	C: .	D: .
smiles: CC(=O)N1[C@H](CNC(=O)C2CC2)[C@@H](c2ccc(-c3ccccc3)cc2)[C@@H]1CO
  A: 11	B: .	C: .	D: .
smiles: CC=Cc1ccc2n(c1=O)C[C@@H]1[C@@H](CO)[C@H](C(=O)NCC)[C@H]2N1C(=O)Nc1cc(F)ccc1F (mixture of isomers)
  A: 10	B: .	C: .	D: .
smiles: C[C@H](CO)N1C[C@H](C)[C@@H](CN(C)C(=O)Nc2ccc(C(F)(F)F)cc2)Oc2ccc(NC(=O)Nc3cccc4ccccc34)cc2C1=O
  A: 0	B: .	C: .	D: .
smiles: COCC(=O)N1[C@H](CO)[C@H]2c3ccccc3N(C(=O)c3ccncc3)C[C@H]21
  A: -19	B: .	C: .	D: .
smiles: Cc1noc(C)c1S(=O)(=O)Nc1cccc2c1O[C@@H](CN(C)C(=O)Nc1ccc(F)cc1)[C@@H](C)CN([C@@H](C)CO)C2=O
  A: 4	B: .	C: .	D: .
smiles: O=C(C[C@@H]1CC[C@@H]2[C@H](COC[C@@H](O)CN2C(=O)c2ccccc2F)O1)N1CCCCC1
  A: 1	B: .	C: .	D: .
smiles: C[C@@H]1CN([C@@H](C)CO)C(=O)c2cc(NS(C)(=O)=O)ccc2O[C@H]1CN(C)S(C)(=O)=O
  A: -9	B: .	C: .	D: .
smiles: O=C(Cc1ccccc1)N1C[C@H]2[C@@H](c3ccccc31)[C@@H](CO)N2S(=O)(=O)c1ccccc1
  A: 63	B: .	C: .	D: .
smiles: CCCC#Cc1ccc([C@H]2[C@H](CO)N3CCCCN(Cc4ccncc4)C[C@@H]23)cc1
  A: -2	B: .	C: .	D: .
smiles: CC1C=NC(S(=O)(=O)N2CC[C@@H]3[C@@H](CO)N(C)c4ccc(-c5ccccc5)cc4[C@@H]32)=N1 (stereo not given in full)
  A: 23	B: .	C: .	D: .
smiles: CO[C@H]1CN(C)C(=O)c2ccc(NS(=O)(=O)c3ccc(Cl)cc3)cc2OC[C@H](C)N(C(=O)NC(C)C)C[C@H]1C
  A: 37	B: .	C: .	D: .
smiles: O=C(NCC1CC1)[C@H]1[C@H](CO)[C@H]2Cn3c(cccc3=O)[C@@H]1N2CCc1ccccc1
  A: -6	B: .	C: .	D: .
smiles: C[C@H]1CN([C@@H](C)CO)C(=O)c2cc(NC(=O)C3CC3)ccc2O[C@H]1CN(C)S(=O)(=O)c1ccc(Cl)cc1
  A: 3	B: .	C: .	D: .
smiles: Cn1cnc(S(=O)(=O)N2CCCCN3[C@H](C2)[C@@H](c2ccc(C#CC4CC4)cc2)[C@@H]3CO)c1
  A: -3	B: .	C: .	D: .
smiles: O=C(Nc1cccc(Cl)c1)N1C[C@@H]2[C@H](c3ccccc31)[C@H](CO)N2C(=O)c1ccncc1
  A: 11	B: .	C: .	D: .
smiles: CC(C)NC(=O)Nc1ccc2c(c1)C(=O)N([C@H](C)CO)C[C@H](C)[C@H](CN(C)Cc1ccncc1)O2
  A: 0	B: .	C: .	D: .
smiles: O=C(CC(F)(F)F)N1C[C@H]2[C@@H](c3ccccc31)[C@@H](CO)N2C(=O)c1ccncc1
  A: 7	B: .	C: .	D: .

Structural class: the entries above with an aryl methoxy group (3)
Letters – A = Yeast UUG start; B = HIV Env fusion; C = Rce1 inhib; D = CSC inhib
smiles: CNC[C@H]1Oc2ccc(NS(=O)(=O)c3ccc(OC)cc3)cc2C(=O)N([C@@H](C)CO)C[C@@H]1C
  A: -13	B: .	C: .	D: .
smiles: COc1ccc(NC(=O)N2C[C@@H](O)COC[C@@H]3O[C@H](CC(=O)NC4Cc5ccccc5C4)CC[C@H]32)cc1
  A: 8	B: .	C: .	D: .
smiles: COc1ccccc1CN1[C@@H](CO)[C@@H]2c3ccccc3N(C(=O)C3CCCC3)C[C@@H]21
  A: 1	B: .	C: .	D: .

The listing continues:
Letters – A = Yeast UUG start; B = HIV Env fusion; C = Rce1 inhib; D = CSC inhib
smiles: C[C@H](CO)N1C[C@H](C)[C@@H](CN(C)Cc2ccncc2)Oc2ccc(NC(=O)Cn3cnnn3)cc2CC1=O
  A: -15	B: .	C: .	D: .
smiles: CC(=O)NC[C@H]1[C@@H](c2ccc(-c3cccc(F)c3)cc2)[C@H](CO)N1C(C)=O
  A: -14	B: .	C: .	D: .
smiles: CN(C)CCOc1ccc(/C(=C(/CCCl)c2ccccc2)c2ccccc2)cc1
  A: 5	B: .	C: i	D: .
smiles: CC(=O)Nc1ccc(C(=O)N2CCN(S(=O)(=O)c3ccc4c(c3)OCCCO4)CC2)cc1
  A: 8	B: .	C: .	D: -8
smiles: COc1cc(NC(=O)COC(=O)CNC(=O)C23CC4CC(CC(C4)C2)C3)cc(OC)c1
  A: 5	B: .	C: .	D: 6
smiles: CCOc1ccc(NC(=O)CN(C)C(=O)c2ccccc2OCc2cccc(C)c2)cc1OCC
  A: 1	B: .	C: .	D: 9
smiles: O=C(CN1C(=O)C(=O)N(C2CCCC2)C1=O)Nc1ccccc1OC(F)F
  A: -8	B: .	C: .	D: -10
smiles: CC(C)Oc1ccc(C(=O)OCC(=O)NC2CCCCCC2)cc1
  A: -4	B: .	C: .	D: -14
smiles: O=C(O)[C@H]1[C@H](CO)[C@H]2Cn3c(ccc(-c4cncnc4)c3=O)[C@H]2N1C(=O)C1CCCCC1
  A: .	B: -2[16.7 µM]	C: .	D: .
smiles: O=C(CCN1CCCCC1)NCC[C@@H]1CC[C@H](NC(=O)Cc2cccnc2)[C@@H](CO)O1
  A: .	B: -2[16.7 µM]	C: .	D: .
smiles: C[C@H](CO)N1C[C@H](C)[C@H](CN(C)S(C)(=O)=O)OCc2ccccc2-c2ccccc2C1=O
  A: .	B: 0[16.7 µM]	C: .	D: .
smiles: Cc1noc(C)c1NC(=O)Nc1ccc2c(c1)C(=O)N([C@H](C)CO)C[C@H](C)[C@H](CN(C)S(=O)(=O)c1ccc(Cl)cc1)OCCCC[C@@H](C)O2
  A: .	B: 9[16.7 µM]	C: .	D: .
smiles: O=C(C[C@H]1C[C@H]2c3cc(NC(=O)Nc4ccccc4)ccc3O[C@H]2[C@@H](CO)O1)NCc1cccnc1
  A: .	B: -8[16.7 µM]	C: .	D: .
smiles: CCCNC(=O)N1[C@@H]2c3cccc(=O)n3C[C@H]1[C@H](CO)[C@H]2C(=O)N1CCC(Cc2ccccc2)CC1
  A: .	B: 7[16.7 µM]	C: .	D: .

Some of the compounds tested; rates above refer to the full screens.
